Screens deposited in PubChem BioAssay by several laboratories.
RN4220 kill = S. aureus RN4220 growth inhibition | inhibition, % (test concentration not listed) | OD600, 16 h | AID 1259311 | 330,000 tested, 0.33% active;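 active = z-score of -3 or lower and OD600 up to 0.18 on both plates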;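 also: plate controls were untreated cells for no effect and reference antibiotic for full effect; stock transfer was 100 nL into about 80 µL; one replicate is shown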
ugtP null kill = kills S. aureus RN4220 lacking UgtP; S. aureus RN4220 ugtP deletion, OD600 growth, 16 h; some inactives read as strong as hits; 330,000 tested, 0.54% active; growth inhibition, % (no concentration beside the values); AID 1259309;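 active = z-score under -3 and OD600 up to 0.15 on both plates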;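 also: plate controls were untreated wells for no effect and antibiotic for full effect; wells of about 80 µL received 100 nL stock; the first replicate is given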
BJeLR lethal = kills HRASV12-expressing BJeLR cells; BJeLR (HRASV12) viability, CellTiter-Glo ATP luminescence, 48 h; reference of the scale not given here; inhibition, % (concentration not given with the values); 300,000 tested, 0.17% active;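 active = replicate mean above 50%; inconclusive = above 50% but judged a plate artefact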;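 also: 50 nL library stock added to about 25 µL; numbers are from one replicate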
Autofluor counter = flagged as autofluorescent in microsphere protease counterscreen; fluorescence intensity (test concentration not listed); 360,000 tested, 3.1% active; AID 624483; compound autofluorescence counterscreen, microsphere flow cytometry; active compounds read high;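 active = at least 3 SD above the mean of all compounds, about 16000 in these data; inconclusive = too few beads counted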;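 also: 100 nL of 1 mM stock went into each well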
PrP UTR inh = inhibition of PrP 5' UTR reporter expression; 340,000 tested, 0.35% active; AID 488862; cell-based PrP 5' UTR mRNA reporter, plate reader; inhibition, % (no concentration beside the values);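 active = every replicate at 50% or more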;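 also: 0 = median of the neutral control wells; tested in H4 reporter cells; numbers are from one replicate; inactives centre near -14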
Mtb hypoxia inh = Mtb hypoxia fluorescent reporter inhibition; M. tuberculosis hypoxia-regulated fluorescent reporter, fluorescence; fluorescence inhibition, % (no concentration beside the values); 300,000 tested, 0.1% active; AID 1159583;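 active = 35 to 45% if threefold the growth effect, above 45% if 1.5-fold the growth effect; inactive = the rest, general growth blockers included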;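 also: wells of about 50 µL received 100 nL stock; 0% = vehicle wells and 100% = reference inhibitor wells; whole bacteria with a GFP reporter of the hypoxia response; strong numbers were not always called active; many hits fall short of the cut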
Mtb hypoxia inh growth = also measured in Mtb hypoxia inh; calls as there; growth inhibition, %; measured here: M. tuberculosis growth (absorbance);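 0% = vehicle and 100% = reference antibiotic; read after six days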
* = called active by the depositor; ? = inconclusive; . = no result given. Not a hit list (roughly 3.9% active in at least one column).

smiles,RN4220 kill,ugtP null kill,BJeLR lethal,Autofluor counter,PrP UTR inh,Mtb hypoxia inh,Mtb hypoxia inh growth
O=C(CCCCC(=O)NN=Cc1ccc(Cl)cc1)NN=Cc1ccc(Cl)cc1,1.8,-5,.,2922,-41,9,8
O=C(NCc1ccco1)C12CC3CC(C1)CC(C(=O)NCc1ccco1)(C3)C2,4.9,17,-2,?,2,6,0
COc1ccccc1N1CCN(N=Cc2cccc(OC)c2O)CC1,3.9,5,.,.,.,19,4
CCOC(=O)CNC(=O)CN1CCCN(S(=O)(=O)c2ccc(Br)s2)CC1,2.0,8,.,3185,-5,.,.
COc1cccc(-c2cc(C(=O)Nc3c(C)nn(Cc4ccccc4)c3C)no2)c1,1.9,2,.,10684,-33,2,14
CN(C)C(=O)OCc1n(C)cc[n+]1C,3.0,7,3,2695,-15,0,1
CC(C)C1NC(=S)N(Cc2ccccc2)C1=O (configuration not stated),7.0,0,2,3792,-12,7,12
O=C(Nc1nnc(SCc2ccc(F)cc2)s1)C1Cc2ccccc2CN1C(=O)c1ccco1 (configuration not stated),8.1,7,-19,2983,-20,-53,18

smiles,RN4220 kill,ugtP null kill,BJeLR lethal,Autofluor counter,PrP UTR inh,Mtb hypoxia inh,Mtb hypoxia inh growth
CCN(CC)S(=O)(=O)c1ccc2oc(C(=O)N3CCc4ccccc4C3)c(C)c2c1,2.8,-7,2,2282,-14,-1,-10
O=C(CN(C(=O)c1ccccc1Cl)C1CCCCC1)Nc1ccc(Cl)c([N+](=O)[O-])c1,-13,-35,3,4182,-5,2,4
O=[N+]([O-])c1cc(-c2nnc(N3CCOCC3)c3ccccc23)ccc1N1CCOCC1,6.3,-7,3,2523,-21,-4,-7
O=C(CSc1nc(Nc2ccccc2)nc(N2CCOCC2)n1)Nc1cccc([N+](=O)[O-])c1,-3.3,-25,-7,5181,-6,11,7
CC(C)(C)c1ccc2c(c1)N(CC(=O)N1CCOCC1)C(=O)CO2,3.0,-1,3,5135,-12,14,8
Cc1c(C(=O)N(C)C(C)c2ccncn2)oc2c(F)cccc12 (configuration not stated),1.5,-3,-5,5150,-2,6,3
Cc1nc(NC(=O)c2ccco2)sc1C(=O)O,3.3,3,39,6011,-1,6,-4
CCCCCn1c(SCCOCC)nc2c1c(=O)[nH]c(=O)n2C,-12,-4,-2,5982,-4,13,13

smiles,RN4220 kill,ugtP null kill,BJeLR lethal,Autofluor counter,PrP UTR inh,Mtb hypoxia inh,Mtb hypoxia inh growth
COc1cc(C)c(Br)cc1S(=O)(=O)NCc1ccccc1,2.7,-1,6,7919,-24,4,0
CS(=O)(=O)N1CC2CCCN2c2cc(C(F)(F)F)ccc21 (configuration not stated),2.4,3,2,4264,-6,5,10
COC(=O)[C@@H]1C[C@H]1[C@@H](NS(=O)(=O)c1ccccc1)c1ccccc1,.,.,-8,4334,-15,.,.
CCn1c(=O)c(=O)[nH]c2cc(C(=O)Nc3ccc(S(=O)(=O)N4CCCC4)cc3)ccc21,4.4,-4,-2,?,-8,12,-5
c1cncc(C2Nc3ccccc3-c3nc4ccccc4n32)c1 (configuration not stated),6.4,1,4,9969,-25,-5,-16
COc1ccc(/C(C#N)=C/c2ccccn2)cc1,.,.,6,4388,-50,.,.
O=C(COc1ccc(Cl)cc1Cl)NN=Cc1cccnc1,-0.6,-3,.,.,.,-4,-7
CCOC(=O)c1cc(-c2ccc(C)cc2)n(CC(=O)NCc2ccco2)c1C,-8.9,-6,-5,5892,-25,2,8

smiles,RN4220 kill,ugtP null kill,BJeLR lethal,Autofluor counter,PrP UTR inh,Mtb hypoxia inh,Mtb hypoxia inh growth
O=C(Nc1nnc(SCc2ccc(F)cc2)s1)C1=COCCO1,1.4,1,.,8752,-34,13,-1
COc1ccccc1OCCNC(=O)c1c(-c2ccccc2Cl)noc1C,1.3,-2,0,5041,-15,12,0
COc1ccc(C(=O)NN=C2CCCC2)cc1,1.8,5,-10,3375,-18,-4,-5
COc1cccc(-c2cc(C(=O)N3CCN(S(=O)(=O)c4ccccc4)CC3)[nH]n2)c1,-0.9,1,-6,4599,-3,.,.
COc1c(-c2ccc(O)cc2)oc2cc(O)cc(O)c2c1=O,0.2,2,.,4493,1,.,.
Cc1noc(C)c1COc1ccc(C(=O)O)cc1,1.0,3,-1,2378,-24,8,6
CCOC1OC(C(=O)NCc2nc3ccccc3[nH]2)=CC(C2CCCCC2)C1CCCO (configuration not stated),2.7,2,.,.,.,16,5
CC(=NNC(=O)CN(c1ccccc1Br)S(C)(=O)=O)c1cccs1,-0.2,-7,.,.,.,-9,-19

smiles,RN4220 kill,ugtP null kill,BJeLR lethal,Autofluor counter,PrP UTR inh,Mtb hypoxia inh,Mtb hypoxia inh growth
CCSc1nnc(NC(=O)CSc2c(Cl)cccc2Cl)s1,6.0,-1,8,4709,12,6,15
COc1ccc(-n2c(Cc3cccn3C)nnc2SCC(=O)Nc2ccc(F)cc2)cc1,5.7,4,-13,5411,-54,.,.
O=C(NC1CC1)c1ccc(CSCc2ccccc2Cl)o1,4.8,4,9,5058,-19,11,1
CCc1nnc(NC(=O)CSc2nnc(CNc3ccc(OC)cc3)n2C)s1,.,.,0,2516,-16,.,.
CCOC(=O)C1=C(N)n2c(sc(=Cc3ccncc3)c2=O)=C(C(=O)OCC)C1c1ccncc1 (configuration not stated),5.7,0,.,.,.,-2,-3
Cc1cc(C)c(C(=O)CN2C(=O)NC3(CCC(C)CC3)C2=O)cc1C (configuration not stated),16,4,7,3244,-28,2,3
Cc1cc(=O)oc2cc(OCc3ccc(C(=O)OCC(=O)Nc4ccc(N(C)C)cc4)cc3)ccc12,8.1,-3,8,2677,-19,2,1
CC1CC(C)CN(C(=S)Nc2ccc3nc4n(c(=O)c3c2)CCCCC4)C1 (configuration not stated),4.2,1,5,11200,-18,-2,2

smiles,RN4220 kill,ugtP null kill,BJeLR lethal,Autofluor counter,PrP UTR inh,Mtb hypoxia inh,Mtb hypoxia inh growth
Cn1c(COc2ccccc2)nc2ccccc21,0.8,3,-6,4184,-62,-1,-7
Cc1ccc(-c2cc(C(F)(F)F)nn2-c2ccc(S(N)(=O)=O)cc2)cc1,-2.0,-33,-3,6718,-12,3,4
O=C(CN1C(=O)NC2(CCCC2)C1=O)Nc1ccccc1N1CCCCC1,6.4,4,-5,.,-13,11,6
CC(=O)c1ccsc1-c1c(C)cc2oc(=O)cc(-c3ccccc3)c2c1C,2.5,5,.,3400,-12,.,.
CCOC(=O)c1c(C)[nH]c(C(=O)COC(=O)c2cc(C)oc2C)c1C,6.0,7,.,8085,-11,1,-1
Cc1onc(-c2ccc(Cl)cc2Cl)c1-c1csc(COc2ccccc2)n1,-10,49,-14,3452,3,-3,3
COc1cccc(NC(=O)CN2CCN(CC(=O)Nc3ccc(F)cc3)CC2)c1,3.3,8,3,3930,.,2,7
O=C1CCCC(=O)C1=C1SCCCS1,-2.7,-2,1,8159,-16,-2,2

smiles,RN4220 kill,ugtP null kill,BJeLR lethal,Autofluor counter,PrP UTR inh,Mtb hypoxia inh,Mtb hypoxia inh growth
ON=Cc1cccn1-c1nccs1,-1.2,1,.,.,.,11,2
O=C(O)C=CC(=O)O,3.9,0,.,.,.,2,6
Cc1ccc(C(=O)OCC(=O)N2CC(C)OC(C)C2)cc1 (configuration not stated),1.0,3,-4,4329,-24,8,-5
Cc1oc2cc(OC(C)C(=O)O)ccc2c(=O)c1Oc1ccccc1 (configuration not stated),1.5,0,8,3578,13,.,.
CN(C)/C=C(\C#N)C(=O)c1cccnc1Oc1cccc(F)c1,0.6,4,-6,15248,-3,4,6
C/C(=N/OC(=O)c1c(-c2ccccc2Cl)noc1C)c1cnccn1,.,.,3,3619,4,.,.
Cc1c(Cl)cccc1NC(CC(=O)c1ccccc1)C(=O)O (configuration not stated),14,7,17,2509,-27,3,-2
CCN(CC(=O)NCc1ccc(F)cc1)C(=O)c1cc2ccccc2o1,2.8,8,-5,6015,-20,-4,7

A different layout for two compounds above.
Cc1ccc(C(=O)OCC(=O)N2CC(C)OC(C)C2)cc1 (configuration not stated)
  RN4220 kill = 1.0
  ugtP null kill = 3
  BJeLR lethal = -4
  Autofluor counter = 4329
  PrP UTR inh = -24
  Mtb hypoxia inh = 8
  Mtb hypoxia inh growth = -5
Cc1oc2cc(OC(C)C(=O)O)ccc2c(=O)c1Oc1ccccc1 (configuration not stated)
  RN4220 kill = 1.5
  ugtP null kill = 0
  BJeLR lethal = 8
  Autofluor counter = 3578
  PrP UTR inh = 13
  Mtb hypoxia inh = .
  Mtb hypoxia inh growth = .

New compounds follow
smiles,RN4220 kill,ugtP null kill,BJeLR lethal,Autofluor counter,PrP UTR inh,Mtb hypoxia inh,Mtb hypoxia inh growth
CC(=O)Nc1ccc(S(=O)(=O)Nc2ccc3c(c2)OCCO3)cc1,2.7,2,8,4101,-13,-2,-3
O=C(COC(=O)c1ccncc1)Nc1cc(Cl)ccc1Cl,4.9,13,-10,8140,-5,4,2
CCOC(=O)N1CCN(C(=O)C2CCN(c3ncnc4c3sc3cccc(F)c34)CC2)CC1,-12,-4,6,3443,-16,10,15
Cc1c(O)c(CN2CCCCC2)cc2c1oc(=O)c1ccccc12,17,11,-1,3152,-4,-3,2
Cn1nnnc1SCC(=O)NNC(=O)c1ccc(Cl)cc1,4.5,10,-3,2584,-18,8,7
Cc1ccn2cc(CCNS(=O)(=O)c3ccc4ccccc4c3)nc2c1,0.9,3,6,5729,-10,11,0
O=C1c2ccccc2C(=O)C12OC(c1ccccc1)C1(C(=O)c3ccccc3C1=O)C2c1ccc([N+](=O)[O-])cc1 (configuration not stated),17,-7,-7,6886,-4,1,8
O=S(=O)(Nc1ccc(-c2cn3c(n2)SCC3)cc1)c1ccccc1F,5.5,6,0,.,-11,7,3

smiles,RN4220 kill,ugtP null kill,BJeLR lethal,Autofluor counter,PrP UTR inh,Mtb hypoxia inh,Mtb hypoxia inh growth
CC(=O)Nc1ccc(S(=O)(=O)N(C)CC(=O)OC2CCCCC2=O)cc1 (configuration not stated),2.0,3,.,2885,5,-1,0
S=C(Nc1ccc(Cl)cc1Cl)NC1CCCCC1,-24,5,0,2843,-76,7,16
CC1Cc2ccccc2N1C(=O)CN(C)CC(=O)Nc1ccc(OC(F)(F)F)cc1 (configuration not stated),6.2,-9,.,3737,-1,-14,0
C=CCn1c(SCC(=O)Nc2cc(NC(C)=O)ccc2OC)nnc1-c1cccnc1,0.1,7,6,9289,-7,3,0
O=[N+]([O-])c1ccccc1S(=O)(=O)Nc1ncccn1,0.4,3,-4,3070,-19,-5,1
CC(C)C(C)NC(=O)COC(=O)c1cc(S(=O)(=O)N(C)C)ccc1N1CCCC1 (configuration not stated),6.0,6,9,.,.,15,-2
Cc1ccc(C)c(S(=O)(=O)N2CCN(C(=O)c3ccncc3)CC2)c1,3.8,2,11,5626,-20,11,6
CCCOc1ccc(C(=O)NN=Cc2ccc(-c3ccc(S(=O)(=O)Nc4ncccn4)cc3)o2)cc1,0.6,-10,.,.,.,1,4

smiles,RN4220 kill,ugtP null kill,BJeLR lethal,Autofluor counter,PrP UTR inh,Mtb hypoxia inh,Mtb hypoxia inh growth
O=S(=O)(Nc1ccc(S(=O)(=O)N2CCOCC2)cc1)c1ccc(Br)cc1,6.8,1,-15,4032,-29,15,7
CC12CN3CCN(CC(C3)/C1=N/NC(N)=O)C2,.,.,5,6524,-22,.,.
COC(=O)c1ccccc1NC(=O)CN1CCC(NC(=O)c2ccccc2C)CC1,6.2,2,6,16191*,-16,10,10
CC(=O)NCC(=O)OCC(=O)c1ccc2ccccc2c1,2.7,-4,3,4786,-14,3,13
CCN(CC)S(=O)(=O)c1ccc2[nH]cc(C(=O)NCCN3CCCCC3C)c(=O)c2c1 (configuration not stated),-2.7,-4,.,10221,6,-2,-2
